GIV-Gai inh: inhibitors of GIV peptide binding to Galpha-i3, primary screen, biochemical, fluorescence polarization, FITC-GIV GBA peptide, rat Galphai3; Guanine nucleotide-binding protein G(i) subunit alpha-3 (Rattus norvegicus), P08753; 90 min; active compounds read low; scaled: aluminum fluoride 0%, vehicle 100%; percent of control (FP), % (concentration not given with the values); 210,000 tested, 0.42% active; AID 1224905, 2016;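 active = replicate mean at 85% of control or lower, very high polarization wells dropped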;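 also: wells of about 15 µL received 100 nL stock; the first replicate is given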
Target sequence (P08753 whole entry, looked up): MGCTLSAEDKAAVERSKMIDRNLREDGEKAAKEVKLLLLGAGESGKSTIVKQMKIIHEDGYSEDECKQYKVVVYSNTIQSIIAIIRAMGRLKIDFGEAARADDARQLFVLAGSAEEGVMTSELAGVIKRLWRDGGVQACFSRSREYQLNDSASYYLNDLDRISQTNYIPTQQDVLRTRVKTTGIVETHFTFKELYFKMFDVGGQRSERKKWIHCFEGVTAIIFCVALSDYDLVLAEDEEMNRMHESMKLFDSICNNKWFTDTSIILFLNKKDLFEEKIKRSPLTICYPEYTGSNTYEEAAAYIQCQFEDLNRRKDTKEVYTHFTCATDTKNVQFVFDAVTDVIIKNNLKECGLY
Active calls of the source: *. This is a subset; count on the stated rates, not on these rows.

no.	Compound	GIV-Gai inh
1	CC(=O)Nc1ccc(N(CC(O)Cn2c3ccc(Cl)cc3c3cc(Cl)ccc32)S(=O)(=O)c2ccc(C)cc2)cc1 (centres undefined)	111.1
2	CC(=O)c1ccc(N2CCN(C(=O)CCCn3c(=S)[nH]c4ccc(Br)cc4c3=O)CC2)cc1	100.0
3	Cc1csc(-c2cc(S(=O)(=O)N3CCN(c4ccc(Cl)cc4)CC3)c(C)s2)n1	132.9
4	O=C(Nc1ccc(S(=O)(=O)N2CCOCC2)s1)N1CCCN(C(=O)C2CCCO2)CC1 (centres undefined)	104.6
5	N#CC1=C(N)OC2=C(C(=O)CC(c3ccccc3)C2)C12C(=O)Nc1ccc([N+](=O)[O-])cc12 (centres undefined)	116.3
6	CC1(C)CC(=O)C2=C(C1)c1c(ccc3ccccc13)NC2c1ccc(O)cc1 (centres undefined)	108.9
7	COc1ccc(N=S2CC(C)=C(C)CN2S(=O)(=O)c2ccccc2)cc1 (centres undefined)	102.9
8	COc1ccc(C2=NN(C(=O)CSc3nnc(CNC(=O)c4ccccc4F)n3C)C(c3ccc(OC)cc3)C2)cc1 (centres undefined)	111.8
9	Cc1ccc(C(=O)c2oc3ccc4c(C)cc(=O)oc4c3c2-c2ccccc2)cc1	116.3
10	CCCCS(=O)(=O)N1CCC2(C1)C(=O)Nc1ccccc12 (centres undefined)	102.4
11	CCc1ccc(CN2CCCC2c2cc(C)on2)cc1 (centres undefined)	97.3
12	COC(=O)c1ccc2c(c1)N(C)C(=O)CS2	96.6
13	O=C1CSC2(C(=O)Nc3ccccc32)N1c1cccc(F)c1 (centres undefined)	114.7
14	Cc1[nH]nc2nc(SCC(=O)NCCc3ccc(S(N)(=O)=O)cc3)n(-c3ccc(Oc4ccccc4)cc3)c(=N)c12	105.4
15	O=C(CCc1nc(CS(=O)(=O)c2ccc(Cl)cc2)no1)N1CCc2ccccc21	109.0
16	O=C(NCC1CCCO1)C1CCN(c2cncnc2N2CCOCC2)CC1 (centres undefined)	108.1
17	CN(C)c1ccc(/C=C/C=C/C23NC(=O)CN2c2ccccc2C3(C)C)cc1 (centres undefined)	117.2
18	CCOC(=O)c1[nH]c(C)c(CN(C(=O)NC)C2CCCCC2)c1C	102.3
19	Cc1cc2nc(CSc3cccc(Cl)c3)cc(=O)n2o1	108.5
20	Cc1csc(NC(=O)CSc2nn3c(=O)c(C)nnc3s2)n1	104.6
21	CCOC(=O)CC(=O)CSc1nc2c(sc(=S)n2CCc2ccccc2)c(=O)n1Cc1ccco1	108.4
22	COC(=O)c1ccccc1NC(=O)c1sc2ncnc(N3CCC(C)CC3)c2c1C	104.0
23	Cc1ccc(C2/C(=C(/O)c3ccccc3)C(=O)C(=O)N2c2ccc(F)cc2)cc1 (centres undefined)	104.8
24	O=C(c1ccoc1)N1CCC(N2CCc3ccccc32)CC1	97.9
25	N#CC1(C#N)[C@@H]2c3ccccc3C=CN2[C@@H](C(N)=O)[C@@H]1c1ccc(Cl)c(Cl)c1	105.6
26	CCOc1ccc(C2CC(=O)Nc3c2c(C)nn3-c2ccc3nnc(C)n3n2)cc1 (centres undefined)	99.5
27	COc1ccc(OC)c(-n2c(=S)[nH]c3cc(C(=O)NCc4cccc(Cl)c4)ccc3c2=O)c1	107.7
28	CCOC(=O)c1c(NC(=O)c2ccccc2Br)sc2c1CCN(C(=O)OCC)C2	114.1
29	O=C(Nc1ccc2c(c1)OCCO2)N1CCN(Cc2cc(=O)n3nc(-c4cccc(F)c4)sc3n2)CC1	106.1
30	Nc1c(C(=O)Nc2ccccc2)sc2nc3c(c(-c4ccco4)c12)CCCCC3	100.2

Part of the list above in another layout.
#	GIV-Gai inh	SMILES
3	132.9	Cc1csc(-c2cc(S(=O)(=O)N3CCN(c4ccc(Cl)cc4)CC3)c(C)s2)n1
9	116.3	Cc1ccc(C(=O)c2oc3ccc4c(C)cc(=O)oc4c3c2-c2ccccc2)cc1

New compounds follow.
no.	Compound	GIV-Gai inh
31	O=C(NCCC1CCN(C(=O)c2ccc(F)cc2)CC1)c1ccc2c(c1)OCO2	95.9
32	COc1ccc(/C(O)=C2\C(=N)N(c3cc([N+](=O)[O-])ccc3C)C3=C(C(=O)CCC3)C2c2cc(OC)c(OC)c(OC)c2)cc1 (centres undefined)	109.4
33	CS(=O)(=O)n1c(SCC(=O)NCCc2ccccc2)nc2ccccc21	115.0
34	COc1ccc(NC(=O)Nc2nnc(SCC(=O)Nc3ccccc3OC)s2)cc1	98.8
35	Cc1cccc(N2CCN(c3ccc4nnc(CCc5nc(-c6ccc(F)cc6)no5)n4n3)CC2)c1	103.4
36	CCOC(=O)c1c(NC(=O)c2cc(S(N)(=O)=O)c(Cl)cc2Cl)sc2c1CCC(CC)C2 (centres undefined)	106.4
37	COc1ccc(Cl)cc1N(C)S(=O)(=O)c1ccc2[nH]cc(C(=O)NCCCN3CCOCC3)c(=O)c2c1	103.8
38	COc1ccc(Nc2nc(-c3nnn(-c4ccc(Br)cc4F)c3C)ns2)cc1	100.8
39	CC1(C)CC(=O)c2c(oc3ccc(NS(=O)(=O)c4ccc(C(C)(C)C)cc4)cc23)C1	112.5
40	CCCCOc1ccc(-c2nc(C=Nc3cc([N+](=O)[O-])ccc3Cl)c(O)o2)cc1	107.2
41	COC(=O)C1=C(C)NC(=O)CC1c1ccc(Cl)cc1Cl (centres undefined)	112.7
42	Cc1ccc(CC(=O)N2CCc3c(c(C(=O)N4CCCC(C(=O)Nc5ccccc5)C4)nn3C)C2)cc1 (centres undefined)	105.8
43	NS(=O)(=O)c1cc2c(c([N+](=O)[O-])c1)-c1c(cc(S(N)(=O)=O)cc1[N+](=O)[O-])C2=O	115.6
44	CCc1nnc(NC(=O)CSc2nc(=O)[nH]c3c2CCC3)s1	105.1
45	CN(Cc1ccccc1)C(=O)c1ccc(Oc2ccnc(-c3ccc(F)cc3)n2)cc1	99.0
46	c1ccc(-c2nc3cc(-c4noc(C5CCOC5)n4)ccc3o2)cc1 (centres undefined)	97.8
47	CCc1nc2sc(C)nn2c1S(=O)(=O)NC1CCCC1	98.6
48	CCC(=O)Nc1cccc(-c2noc(C3CCCN(C(=O)COc4ccc(Cl)cc4)C3)n2)c1 (centres undefined)	102.4
49	COc1ccccc1-c1cc2n(C)c(C)c(CCC(=O)NCC3CCCO3)c(=O)n2n1 (centres undefined)	107.4
50	COc1ccc(Nc2cc(-n3nc(C)cc3C)ncn2)cc1OC	104.4
51	O=C(NCC1CCCO1)C1CCN(c2ncnc3c2oc2ccccc23)CC1 (centres undefined)	102.9
52	Cc1ccc(-c2cncc(C(=O)Nc3ccc(Br)c(C)c3)c2)cc1	103.7
53	C=CCOc1ccc(C2C3=C(CC(C)(C)CC3=O)OC3=C2C(=O)CC(C)(C)C3)cc1OC	108.3
54	CCOC(=O)C1=C(C)NC2=C(C(=O)C(C(=O)OCC)C(c3cccc(OC)c3)C2)C1c1cccc([N+](=O)[O-])c1 (centres undefined)	99.7
55	Cc1ccc(S(=O)(=O)NC2CCN(C(=O)c3cncc(Br)c3)CC2)cc1	89.6
56	ClCCOc1nc(N2CCOCC2)nc(N2CCOCC2)n1	99.7
57	O=c1oc2ccc([N+](=O)[O-])cc2cc1-c1nc(-c2ccc(Br)cc2)cs1	115.4
58	Cc1cc(C(F)(F)F)c(C#N)c(SCC(=O)Nc2ccccc2C)n1	123.8
59	Cc1[nH]nc(-c2c(C)sc(C)c2S(=O)(=O)NCc2ccc(Cl)cc2)c1C	100.6
60	Cc1cc(C)c2nc3s/c(=C\c4cccc(OCc5ccc(Cl)cc5)c4)c(=O)n3c2c1	101.9
61	Cc1cc(C)cc(N2C(=O)C3C(c4ccccc4Cl)OC4(C(=O)c5ccccc5C4=O)C3C2=O)c1 (centres undefined)	105.0
62	COc1ccc(OC)c(N2C(=N)/C(=C(/O)c3ccccc3)C(c3ccc4c(c3)OCO4)C3=C2CCCC3=O)c1 (centres undefined)	114.7
63	Cn1c2c(c(=O)[nH]c1=O)C(c1ccccc1)C1=C(N2)c2ccccc2C1=O (centres undefined)	102.8
64	O=C(CSc1nc2ccccc2n1S(=O)(=O)c1cccc([N+](=O)[O-])c1)NCc1cccs1	105.1
65	CC(C)OC(=O)c1nnn(-c2nonc2N)c1CN1CCCCC1	116.0
66	N#CC1=C(SCC(=O)Nc2ccc(Cl)c(Cl)c2)NC(=O)CC1c1ccccc1 (centres undefined)	106.4
67	O=CNC1(c2nnnn2-c2cccc(Cl)c2)CCCCC1	124.6
68	COc1ccc(N2C(=O)C3C4c5ccccc5C(C=Nc5cccc(C)c5C)(c5ccccc54)C3C2=O)cc1 (centres undefined)	104.8
69	CCc1nc(-c2ccc(C)c(S(=O)(=O)NCCN3CCC(C)CC3)c2)no1	107.9
70	O=C(CSc1nc2ccccc2c(=O)n1-c1ccc(C(=O)N2CCOCC2)cc1)c1ccc(Br)cc1	108.9
71	Cn1c(=O)n(CC(=O)N2CCN(c3ccccn3)CC2)c(=O)c2ccccc21	109.8
72	CCOc1nc(Nc2ccc(Cl)cc2)nc(NC2CCCC2)n1	104.1
73	COc1ccc(-n2nc3cc(C)c(NC(=O)c4sc5ccccc5c4Cl)cc3n2)cc1	93.8
74	CCc1ccc(S(=O)(=O)Nc2cc3c4c(oc3c3ccccc23)CCC(C(C)(C)C)C4)cc1 (centres undefined)	106.0
75	O=C(NC1CCCC1)C1CCN(c2cnc(N3CCCC3)nc2)CC1	98.6
76	O=C(Nc1ccc(N2S(=O)(=O)c3ccccc3S2(=O)=O)cc1)C1CCCCC1	100.3
77	COCc1cc(C)nc2sc(C(=O)Nc3cc(Br)cc4cccnc34)c(N)c12	111.8
78	CCN(CC)c1ncc2c(n1)CCC(C(=O)N(C)C1CCN(C)CC1)C2 (centres undefined)	101.3
79	Cc1ccc(-c2[nH]nc3c2C(C(=O)c2ccc4c(c2)OCCO4)CC(=O)N3)cc1 (centres undefined)	100.7
80	COc1nc(C)nc(NC(=O)NC(=O)c2c(Cl)nc(C)c(Cl)c2C)n1	105.0
81	COc1ccc(C2=N/C(=C/c3cc(OC)c(OC)c(OC)c3)C(=O)O2)cc1Br	109.8
82	COc1ccc(C(=O)N2CCc3c(c(C(=O)N4CCCC(C(=O)NC5CC5)C4)nn3C)C2)c(OC)c1 (centres undefined)	102.1
83	O=C(CSc1nnc2n(CCC(=O)NC3CCCC3)c(=O)c3ccccc3n12)NCC1CCCO1 (centres undefined)	100.5
84	COC(=O)CSC1=NS(=O)(=O)c2cc(F)ccc2N1	107.8
85	CC(C)Cc1csc(-c2csc(S(=O)(=O)NCc3cccs3)c2)n1	99.0
86	CCOc1ccc(CN2C(=O)c3ccccc3CC2(C)C(=O)NCc2ccccc2C)cc1 (centres undefined)	105.6
87	COc1cc(/C=N/c2oc(-c3ccccc3)c(-c3ccccc3)c2C#N)ccc1O	107.9
88	CCCC1(CC)NC(=S)N(c2ccccc2)N1 (centres undefined)	105.9
89	CCC(Sc1nc2ccccc2o1)C(=O)Nc1cc(C)on1 (centres undefined)	104.1
90	O=c1c2sc(=S)n(Cc3ccco3)c2nc(SCc2cc(=O)n3ccccc3n2)n1-c1ccccc1	106.3

3 entries out of the list above, ordered by the number in GIV-Gai inh, descending.
no.	Compound	GIV-Gai inh
65	CC(C)OC(=O)c1nnn(-c2nonc2N)c1CN1CCCCC1	116.0
71	Cn1c(=O)n(CC(=O)N2CCN(c3ccccn3)CC2)c(=O)c2ccccc21	109.8
66	N#CC1=C(SCC(=O)Nc2ccc(Cl)c(Cl)c2)NC(=O)CC1c1ccccc1 (centres undefined)	106.4

Entries shown so far that have a tert-butyl group:
no.	Compound	GIV-Gai inh
39	CC1(C)CC(=O)c2c(oc3ccc(NS(=O)(=O)c4ccc(C(C)(C)C)cc4)cc23)C1	112.5
74	CCc1ccc(S(=O)(=O)Nc2cc3c4c(oc3c3ccccc23)CCC(C(C)(C)C)C4)cc1 (centres undefined)	106.0

Other records
no.	Compound	GIV-Gai inh
91	CCN(CC)c1ccc(C2N(Cc3ccccc3)CCN2Cc2ccccc2)c(O)c1	127.2
92	COC(=O)c1cccc(C(=O)Nc2ccc(Cl)cc2C)n1	103.2
93	Cc1nn(-c2ccc(-c3ccccc3)nn2)c(C)c1S(=O)(=O)NCc1ccccc1	100.7
94	CCc1nnc2n1CCN(Cc1cn(C)nc1C)C2	94.3
95	O=C(NCCCn1ccnc1)c1cc2nc(-c3ccc(Cl)cc3)cc(C(F)(F)F)n2n1	111.8
96	O=C(Cn1nc(C(=O)N2CCc3ccccc32)ccc1=O)NCC1CCCO1 (centres undefined)	99.2
97	Cn1c(SCc2cc(=O)n3ccccc3n2)nc2cc(-c3ccccc3)sc2c1=O	100.3
98	O=C(NCCc1ccccc1)Nc1c(-c2cccnc2)[nH]c2ccccc12	103.5
99	O=C(Cc1nnc(NC(=O)Nc2ccccc2Cl)s1)NCc1ccccc1	102.4
100	Cc1ccc(-c2noc(C3CC3)n2)cc1-n1cc(C(=O)N2CCc3ccccc32)c(C)n1	100.4
101	CCN(CCCNC(=O)C1CCCN(c2ncnc3c2oc2ccccc23)C1)c1ccccc1 (centres undefined)	96.5
102	CCc1cc2c(N3CCCC(C(=O)NC4CC4)C3)ncnc2s1 (centres undefined)	110.9
103	COc1cc(C2C(C(=O)OCc3ccccc3)=C(C)NC3=C2C(=O)CC(c2cccs2)C3)cc([N+](=O)[O-])c1O (centres undefined)	98.7
104	CCOC(=O)C1=NN(c2ccccc2)C2(S1)c1ccccc1C(c1ccc(C(C)C)cc1)=NN2c1ccccc1 (centres undefined)	105.2
105	Cc1ccc(S(=O)(=O)N(CC(O)CN(Cc2ccccc2)Cc2ccccc2)c2cccc([N+](=O)[O-])c2)cc1 (centres undefined)	118.5
106	COc1ccc(C(C2=C(O)CC(C)(C)CC2=O)C2=C(O)CC(C)(C)CC2=O)cc1OC	103.1

High-throughput results: PubChem, ICCB-Longwood Screening Facility, Harvard Medical School
